LANA-H2B inh: blockers of LANA interaction with H2A/H2B – biochemical, FP readout, HTS, primary screen. cell-free LANA-H2A/H2B peptide, fluorescence polarization. inhibition, % (no concentration beside the values). 320,000 tested, 0.6% active. AID 2629, 2010; in the data active = inhibition mostly above about 10%, no sharp cut-off; inactive = mostly below about 6.7%;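 note: stock transfer was 7.5 nL into about 10 µL; 0% = median of vehicle wells and 100% = median of positive control wells; one replicate is shown; the record names a cut of 25% in any replicate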
UCH37 DUB inh: inhibitors of human UCH37 deubiquitinase, primary screen, biochemical, Ub-AMC cleavage, fluorescence; Ubiquitin carboxyl-terminal hydrolase isozyme L5 (Homo sapiens), Q9Y5K5; purified proteasome/UCH37; inhibition, % (no concentration beside the values); 330,000 tested, 0.33% active;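 active = mean of two replicates above 20%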;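 note: 0% = compound-free wells with enzyme and 100% = wells lacking proteasome; stock transfer was 100 nL into about 20 µL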
Target sequence (Q9Y5K5 whole entry, looked up): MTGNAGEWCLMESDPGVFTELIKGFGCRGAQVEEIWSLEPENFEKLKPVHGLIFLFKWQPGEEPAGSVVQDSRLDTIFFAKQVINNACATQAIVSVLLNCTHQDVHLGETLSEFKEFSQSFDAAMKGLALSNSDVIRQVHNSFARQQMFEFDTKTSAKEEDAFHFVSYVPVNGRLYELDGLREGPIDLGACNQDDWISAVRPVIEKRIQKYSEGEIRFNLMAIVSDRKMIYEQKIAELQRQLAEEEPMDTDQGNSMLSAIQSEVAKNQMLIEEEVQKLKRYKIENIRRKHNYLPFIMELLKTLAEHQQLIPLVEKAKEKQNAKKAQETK
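Test system – human UCH37 enzyme supplied as purified proteasome complex · Incubation – 30 min preincubation with enzyme, 25 min cleavage at room temperature · Detection – AMC fluorescence from Ub-AMC cleavage, excitation 355 nm, emission 460 nm · Benchmarks – no-proteasome wells (full inhibition) and compound-free wells (no inhibition)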
HNF4A DNA FP: change in binding of human HNF4A to DNA, primary screen, biochemical, fluorescence polarization, FITC-DNA; AID 1224865, 2016; 1 h; activity change, % at 10 µM; 360,000 tested, 0.3% active; Hepatocyte nuclear factor 4-alpha (Homo sapiens), P41235; in the data active = activity change above about 30%, passing the limit was not always enough;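 note: controls were the assay level and a saturating level of protein; the project sought stronger binding though the title names inhibitors; some compounds called inactive have numbers as strong as hits; positive values seem to mean higher polarization but the record does not say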
Target sequence (P41235 whole entry, looked up): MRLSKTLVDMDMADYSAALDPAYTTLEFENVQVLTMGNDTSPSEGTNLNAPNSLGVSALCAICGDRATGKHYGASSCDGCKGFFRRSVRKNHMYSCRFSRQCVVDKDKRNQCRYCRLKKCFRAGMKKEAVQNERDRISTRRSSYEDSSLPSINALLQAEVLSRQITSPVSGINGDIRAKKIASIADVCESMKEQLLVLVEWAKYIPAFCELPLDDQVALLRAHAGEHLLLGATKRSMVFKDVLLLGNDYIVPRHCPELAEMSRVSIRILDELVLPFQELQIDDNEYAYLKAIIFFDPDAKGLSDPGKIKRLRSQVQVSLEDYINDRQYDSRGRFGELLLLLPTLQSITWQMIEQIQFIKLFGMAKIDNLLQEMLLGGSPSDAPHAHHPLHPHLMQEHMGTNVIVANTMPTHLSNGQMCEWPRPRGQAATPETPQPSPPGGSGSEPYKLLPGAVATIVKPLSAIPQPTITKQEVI
E coli growth: E. coli growth inhibition, primary screen, OD600 | Escherichia coli growth, 23 h; stronger effect = lower value | OD600 absorbance (concentration not given with the values) | 330,000 tested, 0.21% active;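 active = OD600 absorbance below the run mean of sample wells minus 3.6 SD, in any replicate, cut at about 0.56 in these data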;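 note: stock transfer was 300 nL into about 60 µL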
FGF22 binding: binders of human FGF22 protein, primary screen, FGF22 synaptogenesis inhibitor project, biophysical, thermal shift, single point; recombinant FGF22 thermal shift, SYPRO orange fluorescence; percent of sucrose octasulfate shift, DMSO zero; 340,000 tested, 1.5% active; AID 651658, 2012; Fibroblast growth factor 22 (Homo sapiens), Q9HCT0; calls only at 9.99 µM;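 active = melting point raised past a set limit in the mean and every replicate; three in four hits are not shown here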
Beta2AR agonist: beta2AR agonists driving receptor internalization, primary screen, cell-based, FAP fluorogen, flow cytometry | Beta-2 adrenergic receptor (Homo sapiens), P07550 | Am2.2-beta2AR cells; reference of the scale not given here | response, % (concentration not given with the values) | 340,000 tested, 0.43% active | AID 504454, 2011;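 active = response above a set limit, near 3 SD of response in nonfluorescent compounds, cut at about 42% in these data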;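 note: stock transfer was 100 nL into about 11 µL; a reference agonist was the positive control; negative values mostly stem from fluorescent compounds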
ALR inh: inhibitors of human ALR sulfhydryl oxidase, primary screen, biochemical, H2O2 detection, HRP-luminol luminescence, single point; FAD-linked sulfhydryl oxidase ALR (Homo sapiens), P55789; purified ALR, DTT oxidation; inhibition, % (concentration not given with the values); 290,000 tested, 3.8% active;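 active = mean and each replicate at 75% or more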;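 note: stock transfer was 7.5 nL into about 7.5 µL; 0% = neutral wells and 100% = wells with inactivated enzyme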
Target sequence (P55789 whole entry, looked up): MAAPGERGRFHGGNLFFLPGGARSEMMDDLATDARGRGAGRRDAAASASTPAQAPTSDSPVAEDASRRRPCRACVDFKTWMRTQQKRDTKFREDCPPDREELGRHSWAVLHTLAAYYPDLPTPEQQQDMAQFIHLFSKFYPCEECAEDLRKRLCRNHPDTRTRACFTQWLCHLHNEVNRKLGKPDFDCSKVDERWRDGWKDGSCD
* marks the source's active call; other numbers are inactive results; i = inactive; / = no result given; & = joins results of further samples. Some of the compounds tested; the hit share may differ from the screen's.

SMILES	E coli growth	FGF22 binding	Beta2AR agonist	HNF4A DNA FP	UCH37 DUB inh	ALR inh	LANA-H2B inh
Cc1ccc2c(c1)C(=O)CC(c1ccccc1)S2 (centres undefined)	0.65	i	-2	0.2	-2.4	/	/
O=C(Nc1cccnc1)c1noc2c1CCCC2	0.64	/	-4	-1.6	0.5	/	/
O=C(O)C1CCCN(S(=O)(=O)c2cccc3cccnc23)C1 (centres undefined)	0.71&0.71	i	10	3.8	4.7	-15	-2.0
NC(=O)c1ccc(NC(=O)COC(=O)CCc2ccc(S(=O)(=O)N3CCCCC3)cc2)cc1	0.7	i	1	-0.1	-0.4	0	1.6
N#Cc1c(-c2ccco2)nc(NCC2CCCO2)[nH]c1=O (centres undefined)	0.68	/	6	-3.1	-0.2	1	1.8
CCN(CC)c1ccc(NC(=O)Nc2cccc(C(C)=O)c2)cc1	0.64	/	34	-1.8	-69	28	-1.0
O=c1cc(C(Cl)(Cl)Cl)oc2c1ccc1ccccc12	0.64	/	14	0.2	-0.5	/	0.2
CCNc1nc(NC(C)C)nc(N(C#N)CCOc2ccccc2)n1	0.72	/	-17	2.9	4.6	-1	-2.4
NC(=O)N/N=C1\c2ccccc2-c2c(C(N)=O)cccc21	/	i	3	-7.2	/	-12	6.2
Cc1ccccc1OCC(=O)Nc1ccc2c(c1)OCCO2	0.67	i	-2	-0.2	1.2	-18	-1.9

(further entries)
SMILES	E coli growth	FGF22 binding	Beta2AR agonist	HNF4A DNA FP	UCH37 DUB inh	ALR inh	LANA-H2B inh
Cn1ccc(C(=O)Nc2ccc(Br)cc2Br)n1	0.67	/	-19	1.8	6.4	-6	1.1
COc1cc(/C=N/O)c(Br)cc1OCC(=O)Nc1ccccc1C	/	i	-8	2.0	/	-1	17*
COc1ccccc1-c1nc(NC(C)=O)n[nH]1	0.74	/	/	/	2.0	-7	-3.5
COc1cc(/C=C/C(=O)Nc2ccc(OC)c(S(=O)(=O)N3CCOCC3)c2)ccc1OCC#N	0.65	i	-1	-0.2	7.5	-4	-3.6
Cn1c(=O)c2c(nc(N3CCOCC3)n2C)n(C)c1=O	0.66	/	-1	-1.3	2.2	-14	-4.0
CC(=O)Nc1ccc(CN2CCC(Oc3ccc(C(=O)N4CCCC4)cc3)CC2)cc1	0.75	i	1	2.9	2.5	-6	-5.3
CC(=O)N1CCN(S(=O)(=O)c2cccc(C(=O)N(C)Cc3ccc(C)o3)c2)CC1	0.66	i	-5	-1.2	3.6	/	/
CCc1cc2c3c(c1)C(C)CC(C)(C)N3C(=O)/C2=C1\SC(=O)NC1=O (centres undefined)	/	i	16	4.7	/	97*	-1.5
CC1=NN(C(N)=S)C(C)(C)C1	0.67	i	3	-4.3	2.7	-13	-0.2
CCOC(=O)c1ccc(S(=O)(=O)NNC(=O)COc2cccc(C)c2)cc1	0.67	i	2	0.6	2.1	40	1.8

(listing goes on)
SMILES	E coli growth	FGF22 binding	Beta2AR agonist	HNF4A DNA FP	UCH37 DUB inh	ALR inh	LANA-H2B inh
C[C@@]12CCC=C[C@H]1[C@H](c1ccc(/C=C/c3ccccc3)cc1F)N(Cc1ccccc1)C2=O	/	i	8	-1.0	1.5	-15	-4.0
O=S(=O)(Nc1nc2ccccc2s1)c1cc(F)ccc1F	0.69	i	-4	2.8	1.3	0	-2.8
Cc1nn(CC(=O)O)c(C)c1N	0.66	i	-3	0.9	4.5	-11	5.6
Cc1ccc(S(=O)(=O)N2C(=O)CCC2C(=O)O/N=C(\N)c2ccc([N+](=O)[O-])cc2)cc1 (centres undefined)	0.75	i	1	-2.9	2.8	-28	6.4
O=C1N=C(N2CCCCC2)S/C1=C\c1ccc(Br)cc1	0.69	i	-4	-1.0	-3.6	-2	-1.6
O=C(COC(=O)CCC(=O)c1ccc(Cl)cc1)NC1CC1	0.65	i	-6	1.3	-0.6	-2	-1.7
Cc1ccc(OC(=O)CCC(=O)Nc2ccc(Br)cc2)cc1	0.74	/	-2	-1.9	2.7	/	-1.4
O=C1/C(=C/c2ccccc2)Nc2ccccc21	0.7	/	7	15	4.9	-1	-8.7
Cc1cccc2cc(/C=N/NC(=O)[C@H]3C[C@@H]3c3ccccc3)c(Cl)nc12	/	i	2	-1.5	/	7	1.8
COc1ccc(C2=NS(=O)(=O)N(C)C(C(=O)N3C(C)CCCC3C)=C2)cc1 (centres undefined)	0.7	i	12	0.6	1.9	-12	4.6

Continuation.
SMILES	E coli growth	FGF22 binding	Beta2AR agonist	HNF4A DNA FP	UCH37 DUB inh	ALR inh	LANA-H2B inh
COc1ccccc1CNC(=O)N[C@@H](Cc1ccccc1)C(=O)O	0.74	/	-1	1.3	2.9	3	-2.3
Cc1cnc(=O)[nH]c1SCc1ccc([N+](=O)[O-])cc1	0.7	i	-3	0.2	1.6	99*	-3.2
CCOC(=O)c1c(C)nc(C)c2c(=O)oc3ccccc3c12	0.69	i	2	2.1	4.2	-1	-0.1
COc1cc(OC)c2ccc(=O)oc2c1C(CCN1CCCC(C)C1)c1ccc(N(C)C)cc1 (centres undefined)	0.68	i	-5	-5.6	-1.0	/	-4.0
C/C(=N\NC(=O)c1cccc(F)c1)c1ccc(Br)s1	/	/	5	-1.5	/	-4	-4.5
Cc1cccc(NCCC#N)c1	0.68	/	-3	1.3	0.9	-2	-1.3
COc1cc(/C=C(\NC(=O)c2ccccc2)C(=O)N2CC3CC(C2)c2cccc(=O)n2C3)cc(OC)c1OC (centres undefined)	0.65	i	12	-1.9	1.9	-1	3.2
Cc1nn(C(=O)c2ccco2)c(C)c1Sc1ccc(Br)cc1	0.73	/	-2	-0.2	1.9	-1	1.8
O=C(Cn1nc(C(=O)O)c2ccccc2c1=O)NCc1ccco1	0.68	i	-7	0.1	-0.3	8	10
CCN(CC)S(=O)(=O)c1ccc(C)c(N=C=S)c1	0.67	i	1	-2.1	0.1	-4	0.3

New compounds follow:
SMILES	E coli growth	FGF22 binding	Beta2AR agonist	HNF4A DNA FP	UCH37 DUB inh	ALR inh	LANA-H2B inh
COc1ccccc1NCC(=O)N/N=C/C=C/c1ccccc1	/	/	-3	2.8	/	-12	-0.7
COc1ccc(CNC2c3ccccc3-c3ccccc32)cc1OC	0.67	i	9	-0.7	1.3	1	0.3
O=C(c1noc2c1CCCC2)N1CCN(c2ccccc2)CC1	0.73	i	-4	4.3	6.2	44	-0.8
COC(=O)CC1C(=O)NCCN1C(=O)Nc1cccc(Cl)c1 (centres undefined)	0.68	i	7	-4.3	-0.7	/	-4.5
Cc1ccc(S(=O)(=O)N2CCN(C(=O)CCC(=O)NCCc3ccc(S(N)(=O)=O)cc3)CC2)c(C)c1	0.67	i	-2	5.1	4.3	-18	3.9
COc1cccc(C(=O)NNC(=O)c2ccccc2Br)c1	0.67	/	10	-3.5	2.8	1	-0.7
O=C(Nc1cccc([N+](=O)[O-])c1)c1ccc2c(c1)OCO2	0.69	/	-2	-2.0	-0.8	0	-0.4
O=C(C1CCC(CNS(=O)(=O)c2cccs2)CC1)N1CCCCC1 (centres undefined)	0.79	/	13	-1.7	0.4	/	-3.9
CCNS(=O)(=O)c1ccc2nc(NC(=O)c3cccnc3)sc2c1	0.68	/	23	4.4	12	-5	-0.5
O=C(COC(=O)COc1ccc(Br)cc1)NNC(=O)c1ccccc1	0.69	i	-7	-4.5	5.2	-1	-3.7

Additional records
SMILES	E coli growth	FGF22 binding	Beta2AR agonist	HNF4A DNA FP	UCH37 DUB inh	ALR inh	LANA-H2B inh
CCOc1ccc2nc(NCCCNC(=O)c3cc(OC)c(OC)c(OC)c3)c(C#N)cc2c1	0.72	i	3	-9.9	-90	/	1.0
O=C(Cn1ncn2c(cc3ccccc32)c1=O)NCCc1cccs1	0.68	/	-3	2.3	-19	-4	8.3
Cc1cccc(NC(=O)CC2NC3CCCCC3NC2=O)c1 (centres undefined)	0.74	/	-1	0.7	1.9	1	4.6
Cc1ccc(NC(=O)CN2C(=O)N/C(=C/c3ccc(C)s3)C2=O)cc1	0.69	/	-5	101	4.2	-3	-5.1
Cc1onc(-c2ccccc2)c1C(=O)N1CCCCCC1	0.71	i	3	-2.0	0.1	-6	0.7
CCCCn1c(N)c(N(CC(C)C)C(=O)Cc2ccc3c(c2)OCCO3)c(=O)[nH]c1=O	0.63	i	-4	1.2	1.2	-14	-2.0
CC(C)c1ccc(-c2c(NCCc3ccccc3)c(=O)c2=O)cc1	0.61	i	2	4.4	14	5	-2.5
CC1=CC2=NC(=O)CC(C)(C(=O)N(CC(=O)NC(C)(C)C)Cc3cccs3)N2C=C1 (centres undefined)	0.7	/	12	-1.2	-183	-19	-0.9
O=C(Nc1cccc(Cl)c1)c1cccc(N2C(=O)C3CC=CCC3C2=O)c1 (centres undefined)	0.7	i	16	-3.8	-0.6	2	3.0
Cc1cccc(N2CCN(C(=O)c3ccc4ncsc4c3)CC2)c1C	0.68	/	4	5.7	1.7	/	/

(continued)
SMILES	E coli growth	FGF22 binding	Beta2AR agonist	HNF4A DNA FP	UCH37 DUB inh	ALR inh	LANA-H2B inh
O=C1C=C(NCc2ccc(Cl)c(Cl)c2)C2(CCCCC2)O1	0.7	/	-15	0.5	6.5	-1	7.5
Cc1ccc(NC(=O)C2CCCN(S(=O)(=O)c3cccc4nonc34)C2)cc1 (centres undefined)	0.7	i	15	5.1	-0.2	/	1.2
COc1ccc(S(=O)(=O)N2CCN(C3Cc4ccccc4C3)CC2)cc1	0.7	i	-4	-2.3	2.9	-16	0.0
O=C(C1CCN(S(=O)(=O)c2cccs2)CC1)N(c1ccccn1)C1CCCCC1	0.71	/	6	-5.0	3.7	-1	3.4
CSCCC(CO)NC(=O)OCc1ccccc1 (centres undefined)	0.69	/	-3	14	-0.1	-2	0.1
COc1ccc(-c2[nH]ncc2CN(C)Cc2cnccn2)c(OC)c1	0.66	i	-1	-3.5	3.7	-1	/
COc1ccc(OC)c(NS(=O)(=O)c2ccc(Cl)s2)c1	0.69	/	-3	1.8	4.8	3	-0.1
Cc1ccc(S(=O)(=O)NCc2cc(=O)n(C)c(=O)n2C)cc1C	0.72	i	-8	-2.6	1.3	-2	1.5
Cc1ccc2ncccc2c1N	0.67	i	-5	-0.2	0.4	-82	-1.0
O=S1(=O)CC=C(CSc2nc3ccccc3[nH]2)C1	0.8	/	3	-2.6	0.1	-9	3.9
COC(=O)c1ccc(N2CN=C(c3ccc(C)cc3)NC2=S)cc1	0.71	i	-4	-0.8	3.9	35	2.6
